Bfl-1 A1 inh: inhibitors of the anti-apoptotic protein A1, read as caspase activation; MEF A1-2A-BIM cells, Caspase-Glo 3/7 luminescence, 3 h; percent of clofoctol response, vehicle zero; caspase activation, % (no concentration beside the values); 330,000 tested, 0.066% active; AID 2462;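 active means over half of replicate activation scores above 10%, or exactly half above 10 with the replicate mean above 10; inconclusive means replicate mean below 10 yet half the replicates above 10; inactive means over half of replicates below 10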;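 further: wells of about 30 µL received 50 nL stock; many hits fall short of the cut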
UCH37 inh: inhibitors of human deubiquitinating enzyme UCH37. Q9Y5K5. purified proteasome/UCH37, Ub-AMC cleavage fluorescence. inhibition, % (no concentration beside the values). 330,000 tested, 0.33% active. AID 588478;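 active means mean of two replicates above 20%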;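 further: 0% = compound-free wells with enzyme and 100% = wells lacking proteasome; stock transfer was 100 nL into about 20 µL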
Target sequence (Q9Y5K5 whole entry, looked up): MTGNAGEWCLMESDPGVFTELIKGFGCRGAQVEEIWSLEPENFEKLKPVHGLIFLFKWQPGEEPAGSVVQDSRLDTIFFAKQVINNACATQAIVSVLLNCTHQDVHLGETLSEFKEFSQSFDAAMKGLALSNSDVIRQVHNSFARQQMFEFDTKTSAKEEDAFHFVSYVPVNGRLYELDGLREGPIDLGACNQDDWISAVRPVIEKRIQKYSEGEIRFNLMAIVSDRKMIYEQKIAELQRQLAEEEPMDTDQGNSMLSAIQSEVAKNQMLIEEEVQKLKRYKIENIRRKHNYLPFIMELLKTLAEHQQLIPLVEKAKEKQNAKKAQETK
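Material: Human UCH37 enzyme supplied as purified proteasome complex | Schedule: 30 min preincubation with enzyme, 25 min cleavage at room temperature | Detection: AMC fluorescence 355/460 nm | Measure: % inhibition of Ub-AMC cleavage fluorescence | Controls: Wells without proteasome as full block, compound-free enzyme plus substrate as uninhibited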
HNF4A DNA FP: change in binding of human HNF4 alpha to DNA | P41235 | HNF4a-FITC DNA binding, fluorescence polarization, 1 h | activity change, % at 10 µM | 360,000 tested, 0.3% active; in the data active means activity change above about 30%, passing the limit was not always enough;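 further: controls were the assay level and a saturating level of protein; the project sought stronger binding though the title names inhibitors; some compounds called inactive have numbers as strong as hits; positive values seem to mean higher polarization but the record does not say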
Target sequence (P41235 whole entry, looked up): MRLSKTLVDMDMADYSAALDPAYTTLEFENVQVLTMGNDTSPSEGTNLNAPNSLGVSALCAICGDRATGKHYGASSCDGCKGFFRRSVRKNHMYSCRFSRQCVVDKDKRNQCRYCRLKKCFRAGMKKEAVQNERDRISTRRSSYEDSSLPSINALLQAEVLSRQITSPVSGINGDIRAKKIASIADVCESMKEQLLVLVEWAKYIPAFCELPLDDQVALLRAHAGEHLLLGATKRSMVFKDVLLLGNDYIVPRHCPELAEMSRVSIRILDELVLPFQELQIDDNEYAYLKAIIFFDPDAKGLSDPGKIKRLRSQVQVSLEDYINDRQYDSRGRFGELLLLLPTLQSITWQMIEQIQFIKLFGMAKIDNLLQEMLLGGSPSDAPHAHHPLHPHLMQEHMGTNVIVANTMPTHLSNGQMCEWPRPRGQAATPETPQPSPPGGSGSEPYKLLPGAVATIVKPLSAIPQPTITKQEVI
LANA-H2B inh: blocks KSHV LANA binding to histone H2A/H2B | Q9QR71 | cell-free LANA-H2A/H2B peptide, fluorescence polarization | inhibition, % (test concentration not listed) | 320,000 tested, 0.6% active | AID 2629; in the data active means inhibition mostly above about 10%, no sharp cut-off; inactive means mostly below about 6.7%;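 further: stock transfer was 7.5 nL into about 10 µL; 0% = median of vehicle wells and 100% = median of positive control wells; one replicate is shown; the record names a cut of 25% in any replicate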
E coli growth: blocks Escherichia coli growth; OD600, 23 h; active compounds read low; OD600 absorbance (no concentration beside the values); 330,000 tested, 0.21% active; AID 1053175;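 active means OD600 absorbance below the run mean of sample wells minus 3.6 SD, in any replicate, cut at about 0.56 in these data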;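 further: stock transfer was 300 nL into about 60 µL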
Vif A3G: HIV-1 Vif–A3G interaction blockers – biochemical, TR-FRET, GST-Vif 1-94, biotin-A3G peptide, dose response retest, primary screen (AID 1117319); TR-FRET GST-Vif / biotin-A3G peptide binding; higher % means a stronger effect; test concentration not given here; strong numbers were not always called active; inhibition, %, or IC50 in µM where a hit was titrated; 260,000 tested, 0.57% active;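 active means above the screen mean plus three standard deviations and confirmed in dose response; inconclusive means results disagree or hit not tested in dose response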;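 further: Vif residues 1-94 fused to GST binding biotinylated APOBEC3G peptide 110-148; 0% = full assay without inhibitor and 100% = GST in place of GST-Vif; retest series ran down from 100 µM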
Beta2AR agonist: human beta-2 adrenergic receptor agonism by FAP | P07550 | Am2.2-beta2AR cells, FAP receptor internalization, flow cytometry; reference of the scale not given here | response, % (concentration not given with the values) | 340,000 tested, 0.43% active;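 active means response above a set limit, near 3 SD of response in nonfluorescent compounds, cut at about 42% in these data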;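 further: stock transfer was 100 nL into about 11 µL; a reference agonist was the positive control; negative values mostly stem from fluorescent compounds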
Numbers without * were called inactive; ? = inconclusive; . = no result given.

SMILES	Bfl-1 A1 inh	UCH37 inh	HNF4A DNA FP	LANA-H2B inh	E coli growth	Vif A3G	Beta2AR agonist
COc1ccc(F)cc1S(=O)(=O)NCC(c1ccco1)N1CCc2ccccc2C1 (stereo not drawn)	-0.6	6.0	2.1	-1.8	0.622	23.4%	4.8
O=C(Nc1ccccc1F)c1ccc([N+](=O)[O-])s1	-4.4	2.9	0.7	-1.2	0.567	-8.4%	6.8
CCC(C)n1cnc2c(=O)oc3ccccc3c21 (stereo not drawn)	0.2	2.9	-4.2	2.3	0.692	-0.7%	7.6
S=c1[nH]nc(-c2ccccc2)n1/N=C/c1c[nH]c2ccccc12	-1.6	.	0.8	0.9	.	.	0.0
Cc1cccnc1N1C(=O)c2ccc(C(=O)O)cc2C1=O	0.6	0.7	-1.4	-1.9	0.651	-9.4%	7.5
CCN(CC)CCNC(=O)c1ccc2c(c1NCCO)C(=O)c1ccccc1C2=O	-0.7	8.5	-2.8	4.6	0.635	-15.9%	.
O=c1[nH]c(=O)n(Cc2ccccc2)c2c1C(C(F)(F)F)(C(F)(F)F)N=C(c1ccco1)N2	-0.3	0.3	1.7	-3.2	0.656	-0.6%	0.4
N#CC1=C(S)N(c2ccccc2)C(c2ccc(-c3cc(Cl)ccc3Cl)o2)NC1=O (stereo not drawn)	-0.3	3.0	0.6	-5.6	0.726	-47.0%	9.4
Cc1ccc(/C=C/C(=O)Nc2nnc(SCc3ccc(C#N)cc3)s2)o1	0.9	-11.9	4.9	-4.5	0.718	-1.0%	-0.1
Cc1cccc(-n2cc(-c3ccccc3)c3c(NN4CCOCC4)ncnc32)c1	0.4	1.8	-2.0	0.7	0.685	-2.4%	-2.2
Cc1ccc2nc(N/N=C/c3ccccc3F)nc(-c3ccccc3)c2c1	0.0	.	0.4	.	.	.	-2.2
COc1cccc(/C=N/NC(=O)CC2C(=O)NN=C2C)c1OC (stereo not drawn)	0.1	.	0.7	0.4	.	16.1%	1.9
COc1cccc(NC(C(=O)Nc2cccc(C(C)=O)c2)c2ccccc2)c1 (stereo not drawn)	-0.1	0.4	-3.4	1.1	.	.	2.6
CC(C(=O)NN)n1nnc(N2CCOCC2)n1 (stereo not drawn)	-0.1	2.0	2.5	-10.9	0.671	-6.1%	0.0
Cc1ccc(/C=c2/sc3n(c2=O)CCCN=3)o1	0.0	.	-0.3	-1.6	.	?	-13.4
COc1ccc(N2CCN(CC(=O)Nc3ccccc3SC)CC2)cc1	0.3	4.7	4.2	-0.9	0.667	-1.5%	9.6
Cc1noc(C)c1CSc1nc2ccccc2c(=O)n1-c1ccc(Cl)cc1	0.2	5.5	3.7	-2.8	0.724	-4.6%	-8.6
CC(C)C[C@H](NC(=O)c1nc[nH]c1C(=O)N1CCC(C)CC1)C(=O)OC(C)(C)C	-0.8	1.4	2.2	0.0	.	-7.4%	-1.8
CC(C)OCCCNC(=O)c1ccc(N(C)S(C)(=O)=O)cc1	0.2	1.8	0.0	7.4	0.7	11.0%	3.0
O=[N+]([O-])c1ccc2nc(-[n+]3c(-c4ccccc4)cc(-c4ccccc4)cc3-c3ccccc3)[nH]c2c1	0.2	10.5	-1.0	1.3	0.706	?	5.8
CCCCCCCCCCCCC(=O)CCCCC(=O)O	-0.9	0.7	-0.3	2.4	0.737	-6.1%	-0.6
Cc1ccccc1NC(=O)c1ccc2nc(N3CCOCC3)sc2c1	0.4	3.2	1.8	1.9	0.768	.	-2.7
N#Cc1cc2sc3nnc(-c4ccncc4)n3c2cc1C#N	-0.9	4.3	7.4	-1.1	0.723	-0.4%	-7.0
CCC(C)NC(=O)c1ccc(NC(=O)C2CCCO2)cc1 (stereo not drawn)	-0.4	3.6	4.4	0.4	0.71	1.5%	2.7
COc1ccc(/C=C/C(=O)NNC(=O)C(C)Oc2ccccc2F)cc1OC (stereo not drawn)	-2.3	-13.0	-2.9	-2.4	0.69	.	-2.6
SMILES	Bfl-1 A1 inh	UCH37 inh	HNF4A DNA FP	LANA-H2B inh	E coli growth	Vif A3G	Beta2AR agonist
CC1CN(S(=O)(=O)N2CCOCC2)CCN1S(=O)(=O)N1CCOCC1 (stereo not drawn)	2.2	1.7	-5.5	-1.8	0.678	-3.0%	2.0
O=C(NNc1ccccc1Br)C(=O)n1ccc2ccccc21	0.1	2.3	3.6	0.5	0.674	2.0%	7.2
CCC(C)NC(=O)c1ccc(N2CC3CC(C2)c2cccc(=O)n2C3)c(NC(=O)c2ccc(Br)o2)c1 (stereo not drawn)	-0.3	4.3	0.5	-1.8	0.699	.	-0.4
CCOc1ccc(/C=C2\SC(=S)N(CCC(=O)O)C2=O)cc1	-4.3	6.0	1.8	-3.2	0.7	70.1%	4.4
CC(OC(=O)c1cccc(S(=O)(=O)Nc2ccccc2F)c1)C(=O)NCc1ccc2c(c1)OCO2 (stereo not drawn)	0.8	8.1	0.9	-3.6	0.691	-0.2%	-5.7
COC(=O)c1ccc(NS(=O)(=O)c2ccc(SC)cc2)cc1	-1.0	4.6	-0.5	-0.7	0.695	10.7%	-2.5
Fc1ccc(CNC2CCN(Cc3ccccc3)CC2)cc1	-0.6	1.9	0.4	6.5	0.62	6.4%	11.8
O=C(COc1ccccc1/C=C1\SC(=O)NC1=O)Nc1ccc(F)cc1	0.2	5.1	3.4	-2.5	.	11.9%	12.4
CCn1c2ccc(F)cc2c2nnc(NN)nc21	0.4	2.7	1.9	-0.8	0.698	3.4%	-2.9
CN(C)c1ccc([N+](=O)[O-])cc1C(=O)O	0.4	12.8	4.4	-0.3	0.648	.	2.1
Cc1ccc(C(=O)Nc2c3c(nn2C(C)(C)C)CS(=O)(=O)C3)cc1[N+](=O)[O-]	-0.1	2.3	3.1	-0.9	0.653	.	-2.4
Cc1cc(C)c2oc(-c3ccc(C)c(NC(=S)NC(=O)c4cccs4)c3)nc2c1	-0.3	1.4	0.4	3.2	0.714	2.7%	0.5
O=C(Nc1ccc(F)cc1)Nc1ccc(N2CCOCC2)c2nonc12	0.1	3.7	1.7	12.0	0.676	?	17.0
Fc1ccc2cnc(-c3ccccc3)c(-c3cc(C(F)(F)F)cc(C(F)(F)F)c3)c2c1	-0.3	1.5	4.3	3.6	0.641	.	11.8
O=C1N=C(N2C=CC(=C3C=CNC=C3)C=C2)/C(=C/N=NC(=O)c2ccccc2)S1	0.3	23.8*	-6.0	3.4	0.695	.	5.7
O=C(Nc1ccc(Nc2ccccc2)cc1)C(Cl)Cl	1.2	3.7	2.8	-8.2	0.617	18.5%	5.0
COc1cc(OC)cc(-c2cc3ncccc3cn2)c1	-10.5	0.4	0.2	6.5	0.679	.	-16.1
CNc1cnn(-c2ccc(C)cc2)c(=O)c1Cl	-1.3	1.2	1.7	-4.4	0.726	-12.0%	0.7
CCN(CC(=O)NCc1ccncc1)S(=O)(=O)c1ccccc1	0.6	0.6	-2.8	0.3	0.698	.	1.4
O=C(Nc1ccc(S(=O)(=O)NC2=NCCCCC2)cc1)c1ccccc1Cl	0.0	0.2	-3.1	-0.2	0.707	-6.2%	-1.8
COc1ccccc1-c1nnc(SCc2ccccn2)n1C	0.3	1.5	1.4	-1.6	0.643	-4.1%	6.4
CN(C)S(=O)(=O)c1cccc(NC(=O)C(c2ccccc2)c2ccccc2)c1	0.4	4.1	-1.4	12.5	0.698	.	2.6
COCCN1CN=C(Nc2nc3ccccc3s2)NC1	0.5	4.2	-0.7	2.2	0.815	32.1%	1.7
COc1ccc(OCC(=O)NCc2ccc(Cl)cc2)cc1	0.6	4.8	-0.7	-0.8	0.686	.	0.3
Cc1ccc(Cn2nc(C)c(/C=N/NC(=O)c3cccnc3)c2C)cc1	0.9	.	1.7	-0.2	.	10.7%	-4.6
SMILES	Bfl-1 A1 inh	UCH37 inh	HNF4A DNA FP	LANA-H2B inh	E coli growth	Vif A3G	Beta2AR agonist
CC(C)c1ccc(NC(=O)C2CCN(c3ncnc4c3nc3n4CCCCC3)CC2)cc1	0.0	4.2	-5.4	1.4	0.677	.	-6.6
CCC(c1nnnn1Cc1ccc(F)cc1)N1CCN(C)CC1 (stereo not drawn)	-0.1	4.4	2.1	3.5	0.677	4.9%	4.1
CCN1C(=O)c2ccc(C(=O)NCc3ccc4c(c3)OCO4)cc2C1=O	0.2	1.0	4.8	-0.5	0.719	-10.4%	4.2
CCC(C)c1ccccc1NC(=O)C(C)OC(=O)CN1C(=O)NC(C)(C)C1=O (stereo not drawn)	?	-0.6	1.4	-0.8	0.676	4.6%	-6.3
O=C(CSc1nc2ccccc2s1)N1CCCCC1	-1.2	1.5	-0.8	0.7	0.678	-4.5%	-7.7
CCOc1ccc(-c2c(C(=O)N/N=C/C3CC=CCC3)nnn2-c2nonc2N)cc1 (stereo not drawn)	0.4	.	0.0	3.9	.	.	-5.1
O=C(OCc1ccc(Br)cc1)c1cnc(Cl)c(Cl)c1	1.0	5.5	4.5	6.1	0.718	.	-8.6
Cc1cccc(N=Nc2c(O)[nH]c3ccc(Br)cc23)c1	0.1	5.4	3.3	0.9	0.697	-2.5%	-12.2
Cn1c(=O)[nH]c(=O)c2c1nc(N1CCN(C(c3ccccc3)c3ccccc3)CC1)n2CCO	0.5	.	-1.4	1.7	.	.	5.8
CC1CCCCC1NC(=O)Cn1nnc2ccccc2c1=O (stereo not drawn)	0.4	1.6	-0.7	2.4	0.676	-5.5%	0.5
Cc1ccc(C)c(NC(=O)NC2CCCCCCC2)c1	0.4	0.1	-0.7	-0.5	0.661	.	-5.2
CCc1nc(N)c(C#N)c(-c2cccc3ccccc23)c1C	-0.1	-13.9	3.5	-1.1	0.736	-7.1%	-3.8
O=[N+]([O-])c1ccc(-c2nc3ccc([N+](=O)[O-])cc3[nH]2)cc1	-6.0	6.7	-2.8	1.9	0.631	7.7%	21.4
CCC(C)(C)NC(=O)c1ccc2c(c1)S(=O)(=O)c1ccccc1C2=O	0.6	1.2	-1.4	2.9	0.733	23.5%	1.6
COc1ccccc1NC(=O)c1cccc(S(=O)(=O)N2CCN(Cc3ccccc3)CC2)c1	0.1	0.3	-3.2	-0.4	0.707	4.5%	5.6
COc1ccc(C(=O)COC(=O)C2COc3ccccc3O2)cc1F (stereo not drawn)	0.7	1.7	1.3	4.9	0.695	.	2.5
COc1ccc(CCNC(=O)CCSc2nc(-c3ccco3)cc(C(F)(F)F)n2)cc1	-0.1	6.7	-2.1	-7.0	0.691	2.5%	-9.9
Cc1cc(OCC#N)nc(N)n1	0.5	0.4	-1.2	1.0	0.67	6.7%	6.8
CCOC(=O)N1CCN(C(=O)c2nc3ccccc3s2)CC1	0.6	-3.4	-35.4	3.7	0.69	-3.8%	-1.0
Cc1ccc(N2C(=O)C3C4C=CC(CNC(=S)Nc5ccc(Cl)cc5)(O4)C3C2=O)cc1 (stereo not drawn)	-0.4	2.0	-2.6	-3.1	0.681	.	2.9
O=[N+]([O-])c1ccc(S(=O)(=O)N2CCC3(CC2)OCCN3S(=O)(=O)c2cccs2)cc1	0.1	0.5	-4.4	-5.2	0.713	4.0%	1.3
Cc1cc(C)c(C)c(S(=O)(=O)N2CCNCC2)c1C	0.0	3.0	0.6	5.1	0.659	.	4.7
Cc1cccc(NS(=O)(=O)c2csc(C(N)=O)c2)c1C	0.1	-0.8	2.7	-0.7	0.623	1.9%	-9.0
O=C(CNC(=O)c1ccc(Cl)cc1Cl)OCCOc1ccccc1F	0.0	0.6	-2.0	7.7	0.662	.	8.0
Cc1cccc(NC(=O)Nc2ccc(C)c(C)c2)n1	-4.3	0.4	-3.0	4.2	0.777	2.6%	-5.2
Cc1nc2ncc(Br)cc2[nH]1	1.6	8.0	1.4	1.6	0.683	-8.6%	2.8
